Source: PubChem BioAssay (National Center for Advancing Translational Sciences (NCATS))
NS1 inh: blocks influenza NS1 protein function; S. cerevisiae slowed by influenza A NS1, growth recovery by OD600; Potency, µM (titrated, usually from 46.1 µM), for the others: at the top dose activity, positive = more growth; hit rate 0.4% among 270,000; AID 2326; active means well fitted rising curve with a large enough effect; inconclusive means small, poorly fitted or top-dose-only effect; inactive means no such curve, though single readings can be large or run the other way; note: nearly all actives have a fitted effect of over 50% in size
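Growth recovery, yeast-based: influenza A NS1 expressed in S. cerevisiae causes slow growth, and suppressors are detected by OD600. The parent strain without NS1 is used as positive control.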
MARV entry inh: Marburg virus entry inhibition. Potency, µM (highest dose often 37.8 µM), for the others: at the highest dose activity change, negative = inhibition, hits mostly inhibitors. Marburg virus pseudotyped entry inhibition, cell reporter; control for the full effect not named in the record; about a third of the inactives were read at about 46 µM. hit rate 1.8% among 300,000; active = well fitted inhibition curve with a large enough effect; inconclusive = small, poorly fitted or top-dose-only effect, or effect the other way; inactive = flat fitted curve, though single readings scatter; tested in HEK293 cells; about a fifth of its hits are not listed in these tables; note: % is set by controls: 0 for no effect and ±100 for the full control effect; luciferase read-out
Cruzain noTriton: inhibitors of Trypanosoma cruzi cruzain without detergent; purified cruzain, Z-FR-AMC fluorescence, no detergent; Potency, µM, inactives show max response, negative = inhibition, hits mostly inhibitors; hit rate 2.3% among 200,000;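 note: plate controls were enzyme without inhibitor for no effect and buffer without enzyme for full effect; nearly all actives have a fitted effect of over 40% in size; top concentration of the series not given in the record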
Target sequence (P25779 123-467 limits assumed): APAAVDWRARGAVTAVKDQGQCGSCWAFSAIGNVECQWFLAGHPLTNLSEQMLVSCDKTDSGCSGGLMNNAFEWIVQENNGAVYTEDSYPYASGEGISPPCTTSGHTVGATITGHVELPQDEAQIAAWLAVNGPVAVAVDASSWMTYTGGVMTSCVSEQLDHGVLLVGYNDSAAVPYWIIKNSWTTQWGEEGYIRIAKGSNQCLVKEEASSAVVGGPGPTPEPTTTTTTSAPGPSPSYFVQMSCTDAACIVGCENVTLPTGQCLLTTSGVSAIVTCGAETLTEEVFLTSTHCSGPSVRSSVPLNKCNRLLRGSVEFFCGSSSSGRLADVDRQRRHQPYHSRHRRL
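Purified cruzain at 1.5 nM, pre-incubated 15 min with compound at room temperature in 100 mM sodium acetate pH 5.5, 5 mM DTT, 0.00005% Triton X-100. Reaction started with 2 uM Z-FR-AMC; AMC fluorescence increase over 60 s gives rate.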
StopGo reporter: lowers the luciferase signal of an FMDV 2A StopGo reporter. human cells with a luciferase reporter of 2A StopGo recoding; control for the full effect not named in the record. Potency, µM (titrated, usually from 57.9 µM), inactives show top-dose signal change, negative = less light. hit rate 1.2% among 410,000; active = well fitted falling curve with a large enough effect; inconclusive = small, poorly fitted or top-dose-only effect; inactive = no such curve, though single readings can be large or run the other way; tested in HEK293T cells; note: % is set by controls: 0 for no effect and ±100 for the full control effect; nearly all actives have a fitted effect of over 45% in size; luciferase light after 4 h
RE007 growth inh: less growth of the S. pombe RE007 Vpr strain; S. pombe RE007 Vpr strain, BacTiter-Glo ATP luminescence, 24 h; control for the full effect not named in the record; Potency, µM (highest dose often 92.2 µM), for the others: at the top dose activity change, negative = less growth; AID 651644; hit rate 0.21% among 360,000; active = well fitted falling curve with a large enough effect; inconclusive = small, poorly fitted or top-dose-only effect; inactive = no such curve, though single readings can be large or run the other way;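 note: % is set by controls: 0 for no effect and ±100 for the full control effect; nearly all actives have a fitted effect of over 50% in size; the assay follows cell death caused by Vpr and the record does not say whether a fall means rescue or toxicity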
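Fission yeast RE007 carrying one integrated HIV-1 vpr copy, seeded at OD 0.01 in PMG+AL medium with 23 nL pinned compound. Grown 24 h at 30 degrees; viability read by BacTiter-Glo luminescence after 5 min.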
Cruzain Triton: blocks cruzain activity in presence of Triton detergent; AID 1478; hit rate 0.43% among 200,000; P25779; Potency, µM, for inactives: max response, negative = inhibition, actives largely listed as inhibitors; purified cruzain, Z-FR-AMC fluorescence, 0.01% Triton;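 note: plate controls were neutral wells for no effect and buffer without enzyme for full effect; nearly all actives have a fitted effect of over 40% in size; top concentration of the series not given in the record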
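Cruzain (1.5 nM) preincubated 15 min at RT with compound in 100 mM sodium acetate pH 5.5, 5 mM DTT, 0.01% Triton X-100. Reaction started with 2 uM Z-FR-AMC; AMC fluorescence (ex 360/em 450 nm) change over 60 s gave rate.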
LASV entry inh: Lassa virus entry inhibition; Potency, µM (top dose mostly 37.9 µM), without a hit: at the top dose activity change, negative = inhibition, actives largely listed as inhibitors; hit rate 1.2% among 300,000; Lassa virus pseudotype entry inhibition, cell reporter; control for the full effect not named in the record; AID 540256; active means well fitted inhibition curve with a large enough effect; inconclusive means small, poorly fitted or top-dose-only effect, or effect the other way; inactive means flat fitted curve, though single readings scatter; tested in HEK293 cells; note: % is set by controls: 0 for no effect and ±100 for the full control effect; nearly all actives have a fitted effect of over 50% in size; luciferase read-out
SARS PLP yeast: blocks SARS-CoV papain-like protease in a yeast assay | S. cerevisiae expressing SARS-CoV PLpro, growth rescue; control for the full effect not named in the record | Potency, µM (titrated, usually from 32.9 µM), for the others: top-dose activity, positive = growth rescue | hit rate 0.19% among 330,000 | AID 485353; active means well fitted rising curve with a large enough effect; inconclusive means small, poorly fitted or top-dose-only effect; inactive means no such curve, though single readings can be large or run the other way; note: 0% is about no effect; nearly all actives have a fitted effect of over 55% in size; growth read by luminescence after 48 h
Numbers without * were called inactive; ? = inconclusive; . = no result given; & = joins results of further samples; [ ] = dose if it differs, or a comment. Unless noted, calls come from the whole dose curve; as a rule, active = well fitted curve in the direction sought with a large enough effect; inconclusive = small, poorly fitted or top-dose-only effect, or another doubt; inactive = no such curve, though single readings can be large; an effect the other way counts as inactive or inconclusive. Potency is the fitted concentration of half-maximal effect.

SMILES | NS1 inh | MARV entry inh | Cruzain noTriton | StopGo reporter | RE007 growth inh | Cruzain Triton | LASV entry inh | SARS PLP yeast
CN(C(=O)c1cccc(N2C(=O)C3CC=CCC3C2=O)c1)C1CCCCC1 (stereo not given) | -54.4% | 13.6% | 1.1% | 6.7% | -4.0% | -11.8% | 9.7% | -8.1%
CC1CC(C)CN(C(=O)c2ccc(S(=O)(=O)N3CCCCC3)cc2)C1 (stereo not given) | 6.9% | . | . | -28.6% | -6.7% | . | . | 1.0%
Cc1c(C(=O)O)nn(-c2cccc(C(F)(F)F)c2)c(=O)c1C#N | -7.7% | 10.8%[46.1 µM] | . | 3.8% | 6.5% | . | -11.0%[46.1 µM] | 2.1%
O=C(NCCc1ccc(Cl)cc1)c1ccc2nc(Cc3ccccc3)oc2c1 | . | . | 0.3% | -16.2% | . | -1.5% | ? | .
CC1(C)C(=O)NCCN1C(=O)CC1C(=O)NCCN1CC(c1ccccc1)c1ccccc1 (stereo not given) | 4.3% | . | . | 2.2% | -0.5% | . | . | -0.2%
N#CC1=C(N)OC2=C(C(=O)CCC2)[C@]12C(=O)N(CC(N)=O)c1ccccc12 | 3.4% | ? | 3.3% | -13.7% | 16.9% | 6.1% | -4.1% | -3.5%
C=C1CCC(C)C(C)(CCC2=CCOC2=O)C/C=C\C=C/1C(=O)O (stereo not given) | 6.5% | . | . | -11.2% | -6.8% | . | . | -0.4%
O=C(NCC1CCCO1)c1ccc2[nH]c3c(c2c1)CCCC3 (stereo not given) | . | ? | . | 51.7%[activator] | 6.0% | . | ? | -2.6%
CCOC(=O)N1CCN(C(=O)CSCc2ccc(C)cc2)CC1 | -12.7% | 21.3% | 2.3% | -1.1% | 13.6% | -7.3% | -18.4% | 1.5%
NC(=O)C1CCCN(C(=O)Nc2cccc3ccccc23)C1 (stereo not given) | 1.3% | 19.4% | -0.6% | -10.9% | -8.1% | 0.8% | 14.6% | -1.8%
CCCN(CC1CCCO1)C(=O)c1cc(COc2cccc(OC)c2)on1 (stereo not given) | -22.4% | 21.1% | . | 19.5% | -0.8% | . | 24.1% | 2.7%
Cc1ccc(C)c(NC(=O)CN2C(=O)CCc3ccccc32)c1 | . | . | -10.8% | -5.2% | . | -11.3% | ? | .
CSc1nc(-c2ccccc2)nn1S(=O)(=O)c1ccccc1 | 4.8% | 6.9% | -10.4% | 15.9% | -16.5% | -3.4% | 14.6% | -4.3%
Cc1ccc2c(c1)C(=NC1CCCCC1)c1cc3ccccc3nc1-2 | -7.8% | ? | 13.2% | -21.6% | -25.1% | -6.6% | 1.0% | -8.2%
O=C(CCSc1nc2cc(Cl)ccc2o1)N1CCOCC1 | -12.8% | ? | 0.2% | 21.0% | 10.9% | -1.1% | 3.8% | 0.2%
CCC(C)Nc1nc(-c2ccccn2)nc2ccccc12 (stereo not given) | -3.3% | . | . | ? | -3.4% | . | . | -0.4%
Cc1nc2nc(-c3ccccc3)cn2nc1C | -9.8% | ? | 11.3% | . | -8.6% | -14.2% | 11.6µM* | .
O=C(CSc1ncn(-c2ccccc2)n1)Nc1ccc2c(c1)OCO2 | -2.7% | ? | -5.0% | 7.8% | -14.1% | 2.0% | 6.7% | -0.7%
C=CCn1c(=O)[nH]c(=O)c2c(N)c(C(=O)c3ccc(OC)cc3)sc21 | . | -2.3%[46.1 µM] | . | -12.3% | 0.5% | . | -21.5% | .
CSc1scc2c1-c1nc(SCC(=O)C(C)(C)C)ncc1CC2 | 6.0% | . | . | -5.0% | 2.4% | . | . | -0.3%
Cc1c(Cl)c(-c2n[nH]c(=S)n2Cc2ccco2)nn1C | 2.7% | -13.5% | -0.4% | 13.6% | -6.0% | 10.3% | -16.9% | 12.4%
Cc1ccc(S(=O)(=O)Nc2nc3n(n2)C(c2ccc(Cl)cc2)C=C(c2ccccc2)N3)cc1 (stereo not given) | . | -21.1%[46.1 µM] | ? | -11.9% | . | -9.7% | 0.7%[46.1 µM] | .
CCOC(=O)c1sc2nccc(N(C)C)c2c1N=CNOC | -15.5% | 3.1% | 3.0% | ? | 18.5% | -4.9% | 8.5% | 4.0%
COc1ccccc1C(=O)N/N=C(\C)CC(=O)Nc1ccc2c(c1)OCCO2 | -3.8% | -1.5%[46.1 µM] | . | 3.0% | -9.3% | . | -7.0% | -1.0%

Overlap with the part before: 3 compounds; new compounds follow.
SMILES | NS1 inh | MARV entry inh | Cruzain noTriton | StopGo reporter | RE007 growth inh | Cruzain Triton | LASV entry inh | SARS PLP yeast
Cc1ccc(S(=O)(=O)Nc2nc3n(n2)C(c2ccc(Cl)cc2)C=C(c2ccccc2)N3)cc1 (stereo not given) | . | -21.1%[46.1 µM] | ? | -11.9% | . | -9.7% | 0.7%[46.1 µM] | .
CCOC(=O)c1sc2nccc(N(C)C)c2c1N=CNOC | -15.5% | 3.1% | 3.0% | ? | 18.5% | -4.9% | 8.5% | 4.0%
COc1ccccc1C(=O)N/N=C(\C)CC(=O)Nc1ccc2c(c1)OCCO2 | -3.8% | -1.5%[46.1 µM] | . | 3.0% | -9.3% | . | -7.0% | -1.0%
CC(C)N(CCNC(=O)COc1ccc2oc3c(c2c1)CCCC3)C(C)C | -0.4% | ? | . | 0.0% | 3.0% | . | -24.3%[46.1 µM] | -3.0%
CC(=O)c1ccc(NS(=O)(=O)c2c(C)nc3scc(C)n3c2=O)cc1 | . | 4.2%[46.1 µM] | -4.1% | 18.0% | . | -7.1% | -1.1%[46.1 µM] | .
COc1ccc(OCCn2c(C(C)Oc3ccccc3)nc3ccccc32)cc1 (stereo not given) | . | ? | 6.3% | -28.4% | . | -7.4% | -20.0%[46.1 µM] | .
CN1C(=O)/C(=C/c2cc(N=Nc3ccccc3)ccc2O)SC1=S | -3.5% | -24.6% | 15.8µM* | -0.8% | -9.1% | -4.7% | ? | 5.3%
Clc1c(-c2ccccc2)nc2ccccn12 | -31.1% | ? | . | 32.7%[activator] | -4.7% | . | -27.4%[46.1 µM] | -15.5%
CCN(CC(=O)NCc1ccc(F)cc1)C(=O)c1ccc(C)o1 | 1.4% | -7.6%[46.1 µM] | . | 12.1% | -6.4% | . | -1.7%[46.1 µM] | -4.1%
Cc1ccc(NC(=O)CCCc2ccccc2)nc1 | -7.3% | ? | . | 16.7% | 1.3% | . | ? | -1.0%
COCCCN1C(=O)c2ccc(C(=O)Nc3ccccc3OC)cc2C1=O | -3.3% | -16.3% | 4.7% | -17.7% | -1.3% | -0.6% | 8.7% | -5.0%
O=C(Cc1cccc2ccccc12)NCCc1ccccc1 | 1.3% | -18.5% | . | 5.1% | 2.5% | . | 1.6% | -0.9%
O=c1cc(/C=C/c2ccccc2)oc2c1ccc1ccccc12 | -24.0% | ? | -8.4% | -23.5% | 1.8% | -7.7% | -7.6% | -40.5%
C/C(=N\NC(=O)c1ccoc1C)c1cccc2ccccc12 | -22.2% | -6.6% | . | 20.3% | 0.4% | . | -1.1% | -8.0%
CCNc1nc(NCC)n2c(SCC(=O)Nc3cccc(F)c3)nnc2n1 | . | ? | . | -16.1% | 0.4% | . | -2.7% | -7.1%
COC(=O)[C@H](CCSC)NC(=O)Nc1cccc(Br)c1 | 1.7% | 3.8% | . | 3.7% | -9.1% | . | 6.6% | -1.1%
COCCNC(=O)c1ccc2c(=O)n(Cc3ccco3)c(SCC(=O)Nc3ccc(OC)cc3OC)nc2c1 | 0.5% | . | . | -24.5% | 18.0% | . | . | 12.7%
COc1cc(OC)c(OC)cc1/C=N/NC(=S)NCCN1CCOCC1 | . | -6.8%[46.1 µM] | . | -4.7% | -14.8% | . | -12.1% | 2.4%
CCOc1ccc(C(=O)Nc2onc3c2CCCC3)cc1 | . | . | 0.4% | -72.0% | . | -4.4% | ? | .
CCN(CC)CCN1C(=O)/C(=C\c2ccc(Cl)c([N+](=O)[O-])c2)SC1=Nc1ccc(OC)cc1 | -3.5% | ? | . | 25.1µM* | 6.0% | . | ? | -8.6%
Cn1c(=O)c(=O)n(C)c2cc(S(=O)(=O)CCC(=O)N3CCOCC3)ccc21 | -3.4% | 2.4% | 15.8% | -14.1% | 8.8% | 7.4% | . | 11.5%
O=C(COC(=O)C1CCCCC1)Nc1cccc(F)c1 | . | 9.3%[46.1 µM] | . | -4.7% | -14.2% | . | 11.7%[46.1 µM] | -14.1%
COc1cccc(-c2nnc(NC(=O)C(C)C)o2)c1 | 5.2% | . | 0.8% | 29.6% | 14.7% | -5.6% | . | 3.5%
N#CCCN(Cc1cccnc1)S(=O)(=O)c1ccc(S(=O)(=O)N2CCCCCC2)cc1 | -1.6% | -4.1%&-7.9% | ? | . | -4.5% | -1.5% | 1.3% | 9.6%
O=C(CC(NCCN1CCOCC1)C(=O)O)Nc1cccc(Cl)c1 (stereo not given) | . | -2.0%[46.1 µM] | . | 9.8% | 13.4% | . | 16.1% | .
COc1cccc(NC(=O)CSc2nnc(-c3ccoc3C)n2CC2CCCO2)c1 (stereo not given) | -2.7% | ? | 2.7% | -19.6% | 0.8% | 1.2% | 2.1% | 13.2%
COc1ccc(CCn2c3c(c(=O)[nH]c2=O)C(NC(=O)c2cccs2)(C(F)(F)F)C(=O)N3)cc1OC (stereo not given) | 3.6% | -0.2% | -5.3% | 6.4% | -2.1% | 1.1% | 14.3% | -4.9%
O=C(N/N=C/c1ccc2cccnc2c1)c1nc2ccccc2c(=O)[nH]1 | -2.9% | 1.4% | . | 24.5% | -15.4% | . | ? | 0.4%
O=C(CCCCn1c(=O)c2ccccc2n(Cc2cccc(F)c2)c1=O)NCCc1ccccc1 | . | -12.8%[46.1 µM] | -8.7% | -9.8% | . | -2.8% | -8.9%[46.1 µM] | .
